# B2AR ag: beta2AR agonists driving receptor internalization, primary screen, cell-based, FAP fluorogen, flow cytometry. Beta-2 adrenergic receptor (Homo sapiens), P07550. Am2.2-beta2AR cells; reference of the scale not given here. response, % (no concentration beside the values). 340,000 compounds, 0.43% hits;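 active means response above a set limit, near 3 SD of response in nonfluorescent compounds, cut at about 42% in these data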;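 further: stock transfer was 100 nL into about 11 µL; a reference agonist was the positive control; negative values mostly stem from fluorescent compounds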
# Ecoli rRNA inh: reduced GFP signal of wild-type E. coli, primary screen, bacterial rRNA inhibitor project, GFP/RFP fluorescence, OD600, single point. AID 720706, 2013. E. coli WT GFP vs humanized-ribosome RFP mutants, 24 h; hits give low values; DMSO median 0, no signal -100. GFP signal change (wild-type ribosome), % (no concentration beside the values). 350,000 compounds, 1.6% hits;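 active means significant combined selectivity score with lowered wild-type GFP, culture density cut under 30%, mutant RFP and density less affected; inactive means any of these conditions unmet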; further: one replicate is shown; some compounds called inactive have numbers as strong as hits
# E coli growth: E. coli growth inhibition, primary screen, OD600. Escherichia coli growth, 23 h; hits give low values. OD600 absorbance (test concentration not listed). 330,000 compounds, 0.21% hits. AID 1053175, 2014;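 active means OD600 absorbance below the run mean of sample wells minus 3.6 SD, in any replicate, cut at about 0.56 in these data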;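 further: stock transfer was 300 nL into about 60 µL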
# UCH37 DUB inh: inhibitors of human UCH37 deubiquitinase, primary screen, biochemical, Ub-AMC cleavage, fluorescence | AID 588478, 2011 | purified proteasome/UCH37 | inhibition, % (concentration not given with the values) | Ubiquitin carboxyl-terminal hydrolase isozyme L5 (Homo sapiens), Q9Y5K5 | 330,000 compounds, 0.33% hits;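 active means mean of two replicates above 20%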;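 further: 0% = compound-free wells with enzyme and 100% = wells lacking proteasome; stock transfer was 100 nL into about 20 µL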
# Target sequence (Q9Y5K5 whole entry, looked up): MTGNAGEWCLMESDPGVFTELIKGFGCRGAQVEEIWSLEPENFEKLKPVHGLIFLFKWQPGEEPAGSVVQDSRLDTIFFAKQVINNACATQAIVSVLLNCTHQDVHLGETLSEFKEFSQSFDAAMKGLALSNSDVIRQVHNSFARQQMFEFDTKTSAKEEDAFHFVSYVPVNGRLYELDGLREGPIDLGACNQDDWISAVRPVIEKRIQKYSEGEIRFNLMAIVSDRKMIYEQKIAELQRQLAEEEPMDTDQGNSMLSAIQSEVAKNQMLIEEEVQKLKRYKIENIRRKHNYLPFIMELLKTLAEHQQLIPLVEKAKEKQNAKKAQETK
#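 System: Proteasome-associated human UCH37 deubiquitinase; Input: 0.15 nM proteasome in added enzyme buffer; Also added: Ub-AMC substrate from 1 µM stock; Incubation: 30 min compound-proteasome preincubation then 25 min substrate reaction, room temperature; Detection: fluorescence, ex 355 nm, em 460 nm; Read-out: % inhibition of Ub-AMC cleavage fluorescence; Benchmarks: no-proteasome and no-compound wells.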
# ALR inh: inhibitors of human ALR sulfhydryl oxidase, primary screen, biochemical, H2O2 detection, HRP-luminol luminescence, single point; AID 485317, 2010; inhibition, % (concentration not given with the values); purified ALR, DTT oxidation; 290,000 compounds, 3.8% hits; FAD-linked sulfhydryl oxidase ALR (Homo sapiens), P55789;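 active means mean and each replicate at 75% or more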;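 further: stock transfer was 7.5 nL into about 7.5 µL; 0% = neutral wells and 100% = wells with inactivated enzyme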
# Target sequence (P55789 whole entry, looked up): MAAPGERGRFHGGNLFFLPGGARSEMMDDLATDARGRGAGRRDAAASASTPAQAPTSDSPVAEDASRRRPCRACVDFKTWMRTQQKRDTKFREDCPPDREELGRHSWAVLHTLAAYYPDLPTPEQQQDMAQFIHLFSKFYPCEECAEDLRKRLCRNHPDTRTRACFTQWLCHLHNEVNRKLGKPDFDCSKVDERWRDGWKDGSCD
# HNF4A DNA FP: change in binding of human HNF4A to DNA, primary screen, biochemical, fluorescence polarization, FITC-DNA; Hepatocyte nuclear factor 4-alpha (Homo sapiens), P41235; 1 h; activity change, % at 10 µM; 360,000 compounds, 0.3% hits; AID 1224865, 2016; in the data active means activity change above about 30%, passing the limit was not always enough;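 further: controls were the assay level and a saturating level of protein; the project sought stronger binding though the title names inhibitors; some compounds called inactive have numbers as strong as hits; positive values seem to mean higher polarization but the record does not say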
# Target sequence (P41235 whole entry, looked up): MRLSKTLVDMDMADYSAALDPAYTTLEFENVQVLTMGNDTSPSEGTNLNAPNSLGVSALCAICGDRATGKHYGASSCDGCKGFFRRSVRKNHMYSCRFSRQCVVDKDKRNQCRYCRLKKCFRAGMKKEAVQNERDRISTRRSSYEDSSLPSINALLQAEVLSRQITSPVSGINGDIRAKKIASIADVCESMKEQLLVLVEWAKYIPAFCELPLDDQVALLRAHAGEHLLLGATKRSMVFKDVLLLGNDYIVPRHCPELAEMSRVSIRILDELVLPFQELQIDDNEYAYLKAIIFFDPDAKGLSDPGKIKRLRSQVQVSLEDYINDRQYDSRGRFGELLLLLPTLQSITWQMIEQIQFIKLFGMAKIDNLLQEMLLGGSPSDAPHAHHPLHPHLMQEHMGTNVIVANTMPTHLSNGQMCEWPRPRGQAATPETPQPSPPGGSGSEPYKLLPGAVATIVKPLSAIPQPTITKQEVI
# FGF22 binding: binders of human FGF22 protein, primary screen, FGF22 synaptogenesis inhibitor project, biophysical, thermal shift, single point | Fibroblast growth factor 22 (Homo sapiens), Q9HCT0 | recombinant FGF22 thermal shift, SYPRO orange fluorescence; percent of sucrose octasulfate shift, DMSO zero | calls only at 9.99 µM | 340,000 compounds, 1.5% hits;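 active means melting point raised past a set limit in the mean and every replicate; three in four hits are not shown here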
# Ecoli rRNA inh OD600: recorded beside Ecoli rRNA inh, whose call it bears; OD600 change, %; measured here: OD600 growth;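 optical density of the mix in the first replicate; 0 = DMSO median and -100 = no signal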
# Ecoli rRNA inh RFP: also measured in Ecoli rRNA inh; calls as there; RFP signal change, %; measured here: RFP humanized mutant strains;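 first replicate; 0 = DMSO median and -100 = no signal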
# Starred values were filed as active, the others as inactive; i = inactive; x = no result given; & = joins results of further samples.
# Order of results – B2AR ag | Ecoli rRNA inh | Ecoli rRNA inh OD600 | Ecoli rRNA inh RFP | E coli growth | UCH37 DUB inh | ALR inh | HNF4A DNA FP | FGF22 binding
> Nc1ncnc2c1c(-c1ccc(Oc3ccccc3)cc1)cn2C1CCCC1
 : 8 | x | x | x | 0.68 | -1.8 | 3 | -1.4 | i
> CCCCCCCCCCCCCCCC(O)C(N)CO (centres undefined)
 : 3 | x | x | x | 0.6&0.66 | 4.9 | -3 | 47* | i
> O=C(c1ccccn1)N(Cc1cccs1)C1(C(=O)NC2CCCCC2)CCCCC1
 : 10 | -4 | -5 | -0.5 | 0.72 | 0.2 | -5 | 3.3 | i
> CCCC(=O)O[C@]1(C(=O)COC(C)=O)CC[C@H]2[C@@H]3C[C@H](F)C4=CC(=O)C=C[C@]4(C)[C@@]3(F)[C@@H](O)C[C@@]21C
 : -3 | x | x | x | x | 1.2 | x | -0.8 | i
> Cn1ccc2cc3c(cc21)CCN3C(=O)Nc1cccnc1
 : 7 | x | x | x | x | 1.3 | -25 | 24 | i
> COc1cc(C=O)ccc1O
 : x | -1 | 20 | -3.1 | x | x | x | 1.7 | i
> O=C(O)Cc1sc(-c2ccccc2)nc1-c1ccc(Cl)cc1
 : x | -41 | -51 | -15 | x | x | x | -3.9 | i
> CCCC1(c2ccccc2)NC(=O)N(CC(=O)N(C)Cc2c(F)cccc2Cl)C1=O (centres undefined)
 : 6 | -7 | -2 | -0.3 | 0.64 | 0.6 | 19 | -1.2 | i
> CN(C)S(=O)(=O)n1cc(/C=C(\NC(=O)c2ccccc2)C(=O)NCCCn2ccnc2)c2ccccc21
 : -14 | -2 | -23 | 0.4 | 0.71 | 3.2 | 0 | -1.8 | i
> N=c1nc(N2CCCCC2)cc(N)n1O
 : -11&-23 | 3&4 | 13&14 | -0.2&-1.6 | 0.68&0.66 | 3.5&-1.2 | 12&-16 | 1.2&-2.2 | i
> C[C@@H]1C[C@H]2[C@@H]3CCC4=CC(=O)C=C[C@]4(C)[C@@]3(Cl)[C@@H](O)C[C@]2(C)[C@@]1(OC(=O)c1ccco1)C(=O)CCl
 : 20 | x | x | x | x | -0.7 | 0 | 1.6 | i
> CCc1cccc(CC)c1NC(=O)CN(CC(=O)O)CC(=O)O
 : -8 | x | x | x | 0.7 | 1.7 | -2 | -2.6 | i
> O=C(O)Cc1cn(-c2ccccc2)nc1-c1ccc(Cl)cc1
 : -3 | -21 | -31 | -12 | 0.67 | 0.7 | 4 | -4.3 | x
> Cc1cc(=O)oc2cc(O)ccc12
 : 4 | 6 | 7 | -1.0 | 0.7 | i | 29 | -0.8 | i
> CCCOc1ccc(C(=O)OCCN(CC)CC)cc1N
 : -3 | x | x | x | 0.69 | 5.3 | x | -0.4 | i
> CC[C@]12CCCN3CCc4c(n(c5ccccc45)[C@](O)(C(=O)OC)C1)[C@@H]32
 : 10 | x | x | x | x | -0.2 | x | 0.0 | i
> O=C(NC1CCN(CCc2c[nH]c3ccccc23)CC1)c1ccccc1
 : -14 | 11 | 15 | 0.6 | 0.67 | 1.6 | x | 4.2 | i
> O=C(Nc1cc(-c2ccccc2)nn1-c1ccccc1F)c1ccc([N+](=O)[O-])cc1
 : -16 | 9 | 5 | -5.6 | 0.71 | -0.6 | x | -4.5 | i
> CC(=O)Oc1ccc2c(C)cc(=O)oc2c1
 : -1 | x | x | x | 0.75 | -484 | 22 | -1.5 | x
> COc1cc(N)c(Cl)cc1C(=O)N[C@H]1CCN(CCCOc2ccc(F)cc2)C[C@H]1OC
 : 1 | x | x | x | x | 2.6 | -5 | 0.2 | i

# The last two records of the part above lead into the next.
# Order of results – B2AR ag | Ecoli rRNA inh | Ecoli rRNA inh OD600 | Ecoli rRNA inh RFP | E coli growth | UCH37 DUB inh | ALR inh | HNF4A DNA FP | FGF22 binding
> CC(=O)Oc1ccc2c(C)cc(=O)oc2c1
 : -1 | x | x | x | 0.75 | -484 | 22 | -1.5 | x
> COc1cc(N)c(Cl)cc1C(=O)N[C@H]1CCN(CCCOc2ccc(F)cc2)C[C@H]1OC
 : 1 | x | x | x | x | 2.6 | -5 | 0.2 | i
> CC(C)NNC(=O)c1ccncc1
 : -9 | 2 | 8 | -0.8 | 0.64 | 2.7 | -10 | 1.1 | i
> CCCCN(CCCC)CCCOC(=O)c1ccc(N)cc1
 : 3 | 5 | 7 | -1.5 | 0.67 | 1.7 | x | 1.9 | i
> CC1O[C@@H](OCC2O[C@@H](Oc3cc(O)c4c(c3)OC(c3ccc(O)cc3)CC4=O)[C@H](O)[C@@H](O)[C@@H]2O)[C@H](O)[C@H](O)[C@H]1O (some centres undefined)
 : 8 | x | x | x | 0.72 | 4.0 | x | 2.0 | i
> CN(C)CC/C=C1/c2ccccc2COc2ccc(CC(=O)O)cc21
 : 11 | 4 | 8 | -2.1 | x | 1.0 | -1 | -4.7 | i
> CCCCCCCCCCCCCCC[C@@H](O)[C@@H](N)CO
 : 36 | 6 | 15 | 1.2 | x | 1.5 | x | 121* | i
> O=C(O)c1cc(=O)c2ccccc2o1
 : 8 | 7 | 8 | -2.2 | 0.71 | 3.7 | -3 | -1.5 | i
> COc1cc(C2Oc3cc(C4Oc5cc(O)cc(O)c5C(=O)C4O)ccc3OC2CO)ccc1O (centres undefined)
 : -2 | x | x | x | 0.69&0.67 | 3.5 | 74 | 0.7 | i
> CCc1ccccc1OC[C@@H](O)CN[C@H]1CCCc2ccccc21
 : 25 | -55 | -79 | -14 | x | 4.4 | x | -0.1 | i
> CN[C@@H]1[C@H](O)[C@H](NC)[C@H]2O[C@@]3(O)C(=O)C[C@@H](C)O[C@H]3O[C@@H]2[C@H]1O
 : -3 | 13 | 8 | 1.4 | 0.51* | 0.7 | -4 | 3.1 | i
> CCC(C(=O)Nc1ccccc1N1CCCC1)c1ccccc1 (centres undefined)
 : 1 | -5 | -24 | -5.1 | 0.73 | -0.6 | 98* | -1.0 | i
> CC(=O)OCC(=O)[C@@]1(O)CC[C@H]2[C@@H]3CCC4=CC(=O)C=C[C@]4(C)[C@@]3(F)[C@@H](O)C[C@@]21C
 : -3 | x | x | x | x | 4.6 | 0 | 2.1 | i
> COc1ccc(C(=O)c2ccccc2)c(O)c1
 : -17 | x | x | x | 0.69 | 7.2 | -5 | -3.9 | x
> CCCC(=O)O[C@]1(C(=O)CCl)[C@@H](C)C[C@H]2[C@@H]3CCC4=CC(=O)C=C[C@]4(C)[C@@]3(F)C(=O)C[C@@]21C
 : 3 | x | x | x | x | 0.9 | -20 | 6.1 | i
> O=[N+]([O-])c1cncn1CCN1CCOCC1
 : -4 | 15 | 14 | 1.1 | x | x | x | 1.2 | i
> Cc1nc2c3ccccc3nc(NNC(=O)CCC(=O)N3CCN(c4ccccc4F)CC3)n2n1
 : 3 | 0 | 12 | -0.8 | 0.71 | -0.7 | 9 | -2.6 | i
> CC1(C)O[C@@H]2C[C@H]3[C@@H]4C[C@H](F)C5=CC(=O)C=C[C@]5(C)[C@@]4(F)[C@@H](O)C[C@]3(C)[C@]2(C(=O)CO)O1
 : 6 | x | x | x | x | 1.3 | -5 | -2.3 | i
> COC(=O)N/N=C/c1c[n+]([O-])c2ccccc2[n+]1[O-]
 : -6 | x | x | x | x | x | 4 | -4.5 | i

# An excerpt from above in order of number of heavy atoms, rising.
# Order of results – B2AR ag | Ecoli rRNA inh | Ecoli rRNA inh OD600 | Ecoli rRNA inh RFP | E coli growth | UCH37 DUB inh | ALR inh | HNF4A DNA FP | FGF22 binding
> CC(C)NNC(=O)c1ccncc1
 : -9 | 2 | 8 | -0.8 | 0.64 | 2.7 | -10 | 1.1 | i
> O=C(O)c1cc(=O)c2ccccc2o1
 : 8 | 7 | 8 | -2.2 | 0.71 | 3.7 | -3 | -1.5 | i
> CC(=O)Oc1ccc2c(C)cc(=O)oc2c1
 : -1 | x | x | x | 0.75 | -484 | 22 | -1.5 | x
> COc1ccc(C(=O)c2ccccc2)c(O)c1
 : -17 | x | x | x | 0.69 | 7.2 | -5 | -3.9 | x
> COC(=O)N/N=C/c1c[n+]([O-])c2ccccc2[n+]1[O-]
 : -6 | x | x | x | x | x | 4 | -4.5 | i
> CCCCCCCCCCCCCCC[C@@H](O)[C@@H](N)CO
 : 36 | 6 | 15 | 1.2 | x | 1.5 | x | 121* | i
> CCCCN(CCCC)CCCOC(=O)c1ccc(N)cc1
 : 3 | 5 | 7 | -1.5 | 0.67 | 1.7 | x | 1.9 | i
> CN[C@@H]1[C@H](O)[C@H](NC)[C@H]2O[C@@]3(O)C(=O)C[C@@H](C)O[C@H]3O[C@@H]2[C@H]1O
 : -3 | 13 | 8 | 1.4 | 0.51* | 0.7 | -4 | 3.1 | i
> CCc1ccccc1OC[C@@H](O)CN[C@H]1CCCc2ccccc21
 : 25 | -55 | -79 | -14 | x | 4.4 | x | -0.1 | i
> CN(C)CC/C=C1/c2ccccc2COc2ccc(CC(=O)O)cc21
 : 11 | 4 | 8 | -2.1 | x | 1.0 | -1 | -4.7 | i
> CC(=O)OCC(=O)[C@@]1(O)CC[C@H]2[C@@H]3CCC4=CC(=O)C=C[C@]4(C)[C@@]3(F)[C@@H](O)C[C@@]21C
 : -3 | x | x | x | x | 4.6 | 0 | 2.1 | i
> CC1(C)O[C@@H]2C[C@H]3[C@@H]4C[C@H](F)C5=CC(=O)C=C[C@]5(C)[C@@]4(F)[C@@H](O)C[C@]3(C)[C@]2(C(=O)CO)O1
 : 6 | x | x | x | x | 1.3 | -5 | -2.3 | i
> CCCC(=O)O[C@]1(C(=O)CCl)[C@@H](C)C[C@H]2[C@@H]3CCC4=CC(=O)C=C[C@]4(C)[C@@]3(F)C(=O)C[C@@]21C
 : 3 | x | x | x | x | 0.9 | -20 | 6.1 | i
> Cc1nc2c3ccccc3nc(NNC(=O)CCC(=O)N3CCN(c4ccccc4F)CC3)n2n1
 : 3 | 0 | 12 | -0.8 | 0.71 | -0.7 | 9 | -2.6 | i
> CC1O[C@@H](OCC2O[C@@H](Oc3cc(O)c4c(c3)OC(c3ccc(O)cc3)CC4=O)[C@H](O)[C@@H](O)[C@@H]2O)[C@H](O)[C@H](O)[C@H]1O (some centres undefined)
 : 8 | x | x | x | 0.72 | 4.0 | x | 2.0 | i

# Assay outcomes as filed in PubChem.

# The list is partial; count on the stated rates, not on these rows.
